Screening data (PubChem)
Vif A3G – inhibitors of Vif binding to APOBEC3G peptide, primary screen, biochemical, TR-FRET, GST-Vif 1-94, biotin-A3G peptide, dose response retest (AID 1117319); TR-FRET GST-Vif / biotin-A3G peptide binding; higher % means a stronger effect; test concentration not given here; strong numbers were not always called active; inhibition, %; hits with a dose series show IC50 in µM; 260,000 compounds, 0.57% hits;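 active means above the screen mean plus three standard deviations and confirmed in dose response; inconclusive means results disagree or hit not tested in dose response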;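 further: Vif residues 1-94 fused to GST binding biotinylated APOBEC3G peptide 110-148; 0% = full assay without inhibitor and 100% = GST in place of GST-Vif; retest series ran down from 100 µM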
ALR H2O2 inh – human ALR oxidase inhibition via reduced H2O2 | P55789 | purified ALR, DTT oxidation, H2O2 HRP-luminol luminescence | inhibition, % (test concentration not listed) | 290,000 compounds, 3.8% hits | AID 485317;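 active means mean and each replicate at 75% or more; inconclusive means only one of the two met; inactive means neither met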;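 further: stock transfer was 7.5 nL into about 7.5 µL; 0% = neutral wells and 100% = wells with inactivated enzyme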
Target sequence (P55789 whole entry, looked up): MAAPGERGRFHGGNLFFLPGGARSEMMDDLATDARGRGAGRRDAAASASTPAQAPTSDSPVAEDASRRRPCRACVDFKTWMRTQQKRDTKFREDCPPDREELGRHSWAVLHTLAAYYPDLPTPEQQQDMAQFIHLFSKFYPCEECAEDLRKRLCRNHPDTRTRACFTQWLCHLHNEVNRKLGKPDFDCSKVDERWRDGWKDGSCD
Beta2AR agonist – human beta-2 adrenergic receptor agonism by FAP | P07550 | Am2.2-beta2AR cells, FAP receptor internalization, flow cytometry; reference of the scale not given here | response, % (test concentration not listed) | 340,000 compounds, 0.43% hits;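 active means response above a set limit, near 3 SD of response in nonfluorescent compounds, cut at about 42% in these data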;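 further: stock transfer was 100 nL into about 11 µL; a reference agonist was the positive control; negative values mostly stem from fluorescent compounds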
Target sequence (P07550 whole entry, looked up): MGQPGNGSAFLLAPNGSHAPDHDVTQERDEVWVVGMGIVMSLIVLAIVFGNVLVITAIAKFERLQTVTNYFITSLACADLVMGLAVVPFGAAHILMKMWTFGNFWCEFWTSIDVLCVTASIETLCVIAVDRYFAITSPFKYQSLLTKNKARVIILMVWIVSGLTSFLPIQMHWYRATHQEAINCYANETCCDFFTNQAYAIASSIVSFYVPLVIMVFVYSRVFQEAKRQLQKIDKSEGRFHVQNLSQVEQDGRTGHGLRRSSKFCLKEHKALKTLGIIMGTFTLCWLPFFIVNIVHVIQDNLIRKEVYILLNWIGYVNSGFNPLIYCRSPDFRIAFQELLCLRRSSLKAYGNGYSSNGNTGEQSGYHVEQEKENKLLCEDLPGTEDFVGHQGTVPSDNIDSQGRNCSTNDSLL
LANA-H2A inh – blocks KSHV LANA binding to histone H2A/H2B | Q9QR71 | cell-free LANA-H2A/H2B peptide, fluorescence polarization | inhibition, % (test concentration not listed) | 320,000 compounds, 0.6% hits; in the data active means inhibition mostly above about 10%, no sharp cut-off; inactive means mostly below about 6.7%;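 further: stock transfer was 7.5 nL into about 10 µL; 0% = median of vehicle wells and 100% = median of positive control wells; one replicate is shown; the record names a cut of 25% in any replicate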
Calb FLC – C. albicans growth modulation with fluconazole. C. albicans CaCi-2 (fluconazole-resistant clinical isolate) + fluconazole, Alamar Blue growth, 48 h. growth inhibition, % (test concentration not listed). 300,000 compounds, 0.57% hits;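 active means most replicates above 75%; inconclusive means exactly half above 75%; inactive means most below 75%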;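 further: all wells also contain fluconazole at 8 µg/ml as a sub-toxic cotreatment; 0% = median of DMSO wells and 100% = median of geldanamycin control wells; wells of about 8 µL received 7.5 nL stock; the first replicate is given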
RanGTP-Impb inh – disruptors of Ran-importin-beta complex formation – biochemical, FRET, CFP-Ran, YFP-importin-beta, homogeneous, primary screen; cell-free CFP-Ran/YFP-importin-beta FRET ratio; inhibition, % (no concentration beside the values); 300,000 compounds, 1.1% hits;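 active means most replicates above 15%; inconclusive means exactly half above 15%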;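 further: 0% = DMSO wells and 100% = Ran loaded with GDP instead of GTP; wells of about 40 µL received 100 nL stock; the first replicate is given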
HNF4A DNA FP – change in binding of human HNF4 alpha to DNA; 360,000 compounds, 0.3% hits; activity change, % at 10 µM; HNF4a-FITC DNA binding, fluorescence polarization, 1 h; AID 1224865; in the data active means activity change above about 30%, passing the limit was not always enough;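 further: controls were the assay level and a saturating level of protein; the project sought stronger binding though the title names inhibitors; some compounds called inactive have numbers as strong as hits; positive values seem to mean higher polarization but the record does not say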
Target sequence (P41235 whole entry, looked up): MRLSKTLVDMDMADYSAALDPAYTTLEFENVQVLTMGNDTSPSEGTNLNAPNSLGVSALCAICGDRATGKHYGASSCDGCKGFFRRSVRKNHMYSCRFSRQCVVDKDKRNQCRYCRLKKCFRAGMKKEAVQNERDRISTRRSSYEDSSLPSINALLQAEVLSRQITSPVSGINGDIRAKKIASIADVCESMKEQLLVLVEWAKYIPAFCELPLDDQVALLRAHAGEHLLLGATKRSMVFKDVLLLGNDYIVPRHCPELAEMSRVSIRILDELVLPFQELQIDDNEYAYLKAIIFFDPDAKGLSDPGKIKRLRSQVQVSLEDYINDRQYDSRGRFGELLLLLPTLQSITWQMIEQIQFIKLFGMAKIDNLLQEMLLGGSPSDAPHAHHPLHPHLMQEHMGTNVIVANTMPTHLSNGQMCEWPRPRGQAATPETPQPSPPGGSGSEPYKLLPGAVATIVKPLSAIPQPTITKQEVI
* = called active by the depositor; ? = inconclusive; · = no result given; & = joins results of further samples. Rows were taken by chance; overall some 6.3% were active at least once.

SMILES	Vif A3G	ALR H2O2 inh	Beta2AR agonist	LANA-H2A inh	Calb FLC	RanGTP-Impb inh	HNF4A DNA FP
CC(=O)N1CCN(CCS(=O)(=O)c2cc(Cl)ccc2Cl)CC1	-5%	-10	-10	1.3	·	·	2.6
COC(=O)C(=Cc1ccccc1[N+](=O)[O-])C(=O)OC	?	12	11	0.0	32	0.1	-1.0
CCOc1ccc(Cn2c3ccc(OC)cc3c3nc4ccccc4nc32)cc1OC	·	0	-3	-1.4	2	-19	-14
COc1ccc(-c2cc(C3CCN(Cc4ccc([N+](=O)[O-])cc4)CC3)[nH]n2)cc1	0%	-5	5	1.1	8	0.5	2.8
CCN1CCN(C(=S)NC(C)c2ccccc2)CC1 (configuration not stated)	-3%	-3	-11	-6.3	2	5.9	-3.4
CC(=O)N1CCc2cc(S(=O)(=O)NCCC(=O)N3CCN(c4ccccn4)CC3)ccc21	-10%&0%	·	-2	3.1	9	?	-2.3
C/C(=N\NC(=O)c1cc(C)[nH]n1)c1ccc(-c2ccccc2)cc1	·	·	6	2.2	-6	-0.6	0.5
Cc1oc(-c2ccc(Cl)cc2)nc1CN1CCC(C(=O)NCC2CCCO2)CC1 (configuration not stated)	-1%	-7	4	1.5	0	1.2	-3.6
O=C(Nc1ccc(S(=O)(=O)Nc2ncccn2)cc1)c1ccc(Br)s1	-50%	-8	14	6.0	5	-2.2	-0.6
Cc1ccc(OCC(=O)NC(=S)Nc2ccccn2)c(Br)c1	0%	-3	3	1.3	-2	-3.8	5.3
CCOC(=O)c1cnc2ccc(C(=O)OC)cc2c1NCCN1CCOCC1	4%	9	3	7.6	20	-2.4	-2.9
O=C(NCCc1ccccc1)NC1CCCCC1	4%	-4	1	-1.3	-7	6.1	-0.7
C=CCn1c(CCC(O)CCCCC)n[nH]c1=S (configuration not stated)	·	-2	-1	-2.8	9	?	-1.4
CCOC(=O)/C(=C/c1c(C)n(C)c2ccc([N+](=O)[O-])cc12)C(C)=O	0%	1	3	-1.1	-9	?	0.8
Cc1nc2ccccc2c(=O)n1NC(=O)c1c(F)cccc1F	-13%	-1	-8	-4.3	14	9.7	2.8
CCOc1ccccc1NC(=O)CSc1n[nH]c(N)n1	-6%	0	-7	3.9	2	-2.6	1.0
COCC(C)n1c(SCC(=O)NNC(=O)c2ccc(F)cc2)nc2ccccc2c1=O (configuration not stated)	·	·	6	·	-8	-2.0	2.2
Cc1cc(C)c(OCC(=O)NCCCn2nc(C)cc2C)c(C)c1	-4%	-1	-4	2.7	·	·	-1.7
COc1cc(CNCCN2CCOCC2)ccc1OCc1ccccc1Cl	16%	-1	12	-3.9	2	1.2	-2.1
O=C(Nc1ccnn1C1CCN(C(=O)c2cccc(Cl)c2)CC1)C1CCOC1 (configuration not stated)	3%	-1	-2	0.8	0	1.7	-1.6
CC(=O)Nc1ccc(N2N=C(C)C(N=Nc3ccccc3)C2=O)cc1 (configuration not stated)	31%	-6	-3	1.7	5	5.3	1.1
COc1ccccc1NC(=O)N1CCCC1C(=O)NC12CC3CC(CC(C3)C1)C2 (configuration not stated)	-1%	·	-2	0.7	-33	-1.6	-4.8
CC(C(=O)NCCc1ccc(S(N)(=O)=O)cc1)N1C(=O)CC(C)(C)Sc2ccccc21 (configuration not stated)	4%	1	-2	8.8	4	5.7	3.0
Fc1ccccc1-c1nc(NC2CCCC2)c2ccccc2n1	-1%	-1	-2	5.3	13	-3.8	0.4

In the list so far, these contain bromine:
SMILES	Vif A3G	ALR H2O2 inh	Beta2AR agonist	LANA-H2A inh	Calb FLC	RanGTP-Impb inh	HNF4A DNA FP
O=C(Nc1ccc(S(=O)(=O)Nc2ncccn2)cc1)c1ccc(Br)s1	-50%	-8	14	6.0	5	-2.2	-0.6
Cc1ccc(OCC(=O)NC(=S)Nc2ccccn2)c(Br)c1	0%	-3	3	1.3	-2	-3.8	5.3

Later entries.
SMILES	Vif A3G	ALR H2O2 inh	Beta2AR agonist	LANA-H2A inh	Calb FLC	RanGTP-Impb inh	HNF4A DNA FP
CCCCc1ccc(-c2ccc(Br)cc2O)nc1	-2%	·	-4	-1.4	-2	2.5	0.5
CCC(c1ccccc1)c1nnc(NC(=O)c2ccco2)s1 (configuration not stated)	10%	-8	-11	3.8	-3	-1.1	-3.2
Cc1ccccc1C(=O)c1c[nH]c(C(=O)N2CCN(c3ccccc3F)CC2)c1	-18%	2	7	2.0	-5	0.4	-0.8
O=C(N/N=C/c1ccc(OC(=O)c2ccccc2)cc1)c1ccc(CN2CCOCC2)cc1	14%	·	0	0.8	5	4.8	0.2
CN1C[C@H](C(=O)N[C@]2(C)O[C@@]3(O)[C@@H]4CCCN4C(=O)[C@H](Cc4ccccc4)N3C2=O)CC2c3cccc4[nH]cc(c34)C[C@H]21 (some centres not stated)	·	-1	·	-0.7	·	·	5.3&-2.9
COc1ccc2c(C)cc(=S)[nH]c2c1	-16%	·	-5	·	-13	3.1	-1.4
CCOC(=O)C1=C(c2ccccc2)N=C2SCC(=O)N2C1c1ccc(OCC)c(OCC)c1 (configuration not stated)	-15%&-8%	-8	-8	-17	2	0.2	0.3
CS(=O)(=O)N(CC(=O)N1CCN(c2ccccc2F)CC1)c1cccc(C(F)(F)F)c1	11%	1	-7	-6.7	-7	0.1	0.6
O=C(COc1ccccc1F)c1ccc(O)cc1O	5%	22	-1	-0.1	-11	3.8	0.8
Cn1nnnc1SCC(=O)NCc1ccccc1	3%	0	-1	0.1	54	-0.6	1.1
N/C(=N\OC(=O)CCCc1ccccc1)c1cccc([N+](=O)[O-])c1	3%	-4	-3	-6.3	-3	?	-40
Cc1ccc(C)c(NS(=O)(=O)c2ccc(-c3cnc(C4CC4)o3)cc2)c1	2%	-9	22	1.7	-33	-2.4	-0.9
CCOc1ccc(OCC)c(NC(=O)C2CCN(S(=O)(=O)c3c(C)noc3C)CC2)c1	-4%	-4	2	-5.1	1	2.2	3.0
Cc1cc(C)cc(-n2cccc2/C=C2/C(=N)N3C(=NC2=O)SN=C3S(C)(=O)=O)c1	?	88*	1	-3.8	9	3.8	13
O=C(CC(=O)NCc1ccc(Cl)cc1)NCc1ccc(Cl)cc1	-2%	-7	-1	0.0	-5	-3.4	2.5
COc1cc(C(=S)N2CCC(C)CC2)ccc1O	4%	90*	-9	3.8	-5	0.7	1.1
CC1CC(CC(C)C(=O)NC(=S)Nc2ccc(S(N)(=O)=O)cc2)C(=O)O1 (configuration not stated)	0%	4	-4	2.4	-11	-0.5	-1.7
CCCn1c(SCC(=O)Nc2nnc(C(C)C)s2)nc2c1c(=O)n(C)c(=O)n2C	2%	-23	-8	1.0	-18	-0.1	1.0
CCc1cccc(NC(=O)COC(=O)c2cc([N+](=O)[O-])ccc2N2CCOCC2)c1	4%	-4	-1	5.7	-9	-3.2	-2.7
Cc1noc(/C=C/N(C)C)c1S(=O)(=O)N1CCCC(C(=O)NCc2ccc(F)cc2)C1 (configuration not stated)	4%	63	·	5.3	4	-0.9	·
CCc1ccccc1NC(=S)N(CCN(C)C)C(C)c1ccco1 (configuration not stated)	11%	-4	-13	3.0	5	-2.5	-3.4
COc1cccc(CNC(=O)c2ccccc2NC(=O)C2=C(C)OCCS2)c1	4%	-1	-3	2.7	37	0.6	-1.7
O=S(=O)(N/N=C/c1c(F)cccc1Cl)c1ccccc1	-2%	-2	8	3.2	5	-2.5	5.9
CN(C)c1ccc(N2C(=O)CC(Sc3ccccc3C(=O)O)C2=O)cc1 (configuration not stated)	9%	51	-10	-3.0	1	-6.5	2.5
COc1ccc(CCNC(=O)C(C(=O)c2ccccc2)n2ccccc2=O)cc1OC (configuration not stated)	3%	-6	-2	-1.6	-7	-3.7	-4.4
CC(C)CNC(=O)c1cc(-c2ccc3c(c2)OCO3)on1	-11%	-22	3	-6.5	-3	1.4	-3.8
Cn1c(=NC(=O)COc2ccccc2)sc2cccc(F)c21	3%	·	-3	1.3	-3	-1.7	2.8
Cc1ccc(SCCCCN2CCOCC2)cc1	·	-17	8	-2.4	-51	4.4	5.3
CCOC(=O)c1nn(-c2ccc(F)cc2)c(=O)cc1OCC(=O)Nc1ccc(F)c(F)c1	-82%	·	-1	·	-6	0.6	-2.9
COc1cccc(OCC(O)CN2CCC(Cc3ccccc3)CC2)c1 (configuration not stated)	-4%&13%	-22	1	-8.5	3	-1.8	1.8
Cc1ccc(NC(=O)NNC(=O)COc2ccc([N+](=O)[O-])cc2)cc1C	·	-1	8	-9.7	-8	-3.2	3.5
CCOc1cc(C2C3=C(CC(C)(C)CC3=O)N(CCOC)C3=C2C(=O)CC(C)(C)C3)ccc1O	·	-2	-7	-8.4	1	4.2	3.4
CCNC(=O)NC(=O)CN(C)c1ccccc1	-1%	9	6	-1.5	1	1.4	1.8
CCS(=O)(=O)N1Cc2ccccc2CC1C(=O)Nc1ccccc1OC (configuration not stated)	1%	-1	-4	0.7	-1	3.7	-1.4
COC(=NC(C)C)NC(C)C	-2%	-6	·	6.6	-2	1.5	·
C[C@@H](C(=O)NCC1CC1)[C@@H]1C[C@@]1(C)[C@@H](NC(=O)OCc1ccccc1)c1ccccc1	0%	-15	2	1.1	18	-2.8	6.2
Cc1cc(NC(=O)c2ccc3c(c2)OCO3)ccc1NC(=O)c1ccccc1	·	-1	-1	1.4	-8	-2.7	0.2
Cc1ccc(NS(=O)(=O)c2ccc(N/N=C/c3ccncc3)c([N+](=O)[O-])c2)c(C)c1	23%	-18	5	7.6	-10	-2.7	1.9
NC(=O)c1ccsc1NC(=O)COC(=O)C1CCCN1C(=O)c1cccs1 (configuration not stated)	-2%	97*	·	-10	-18	-2.2	·
CC(C)C[C@H]1CNC(=S)N1CC1CCN(CCC2CCCC2)CC1	0%	·	-8	·	·	·	0.6
COCCNc1nnc(SCC(=O)NC2CCCCC2)s1	-9%	0	-6	2.5	·	·	2.1
O=C(NNC(=O)C1C2C=CC(C2)C1C(=O)O)c1ccccc1 (configuration not stated)	·	·	-1	-4.0	-4	-0.8	2.2
COc1ccc(N2C(=O)C3C4C=CC(CC4)C3C2=O)c([N+](=O)[O-])c1 (configuration not stated)	-4%	2	-4	3.5	-22	-0.7	-1.4
COc1ccc(/C=C2\SC(=S)N(C(Cc3ccccc3)C(=O)O)C2=O)cc1 (configuration not stated)	·	·	-2	·	67	1.2	-0.2
COc1cccc(CNC(=O)COC(=O)c2cccc(S(=O)(=O)N3CCN(C(C)=O)CC3)c2)c1	2%	-5	-9	2.9	·	·	-1.7
Cn1c(SCC(=O)Nc2ccc(N3CCOCC3)cc2)nnc1C1CC1	·	?	-2	1.6	·	·	3.7
NS(=O)(=O)c1ccc(CNC(=O)C2(c3ccc(Cl)cc3)CC2)cc1	?	2	-3	-3.9	1	3.1	-1.1
COc1ccc(C(NC(=O)C(C)C)c2ccc3cccnc3c2O)cc1 (configuration not stated)	·	-3	6	0.1	86*	-13	2.8
COc1ccc(N2CCN(c3nc(-c4cccs4)nc4ccccc34)CC2)cc1	-13%	·	-4	-4.0	3	-1.9	7.4
Cc1ccc2nc(Cl)c(CNCc3ccccc3)cc2c1	-6%	-9	-6	-1.9	-5	-7.5	-0.4
COc1ccccc1NC(=O)COC(=O)c1cc(C)nc2ccccc12	·	-2	-15	0.1	·	·	4.1
COc1ccc(-c2nnc(SCC(=O)Nc3ncc(C(F)(F)F)cc3Cl)n2CC(C)C)cc1	0%	·	-20	·	6	8.2	1.2
Cc1ccc(CN(C)C(=O)c2ccccc2Sc2ccccc2C#N)cc1	·	-29	6	-12	-2	2.5	2.2
